# Screening results deposited in PubChem by National Center for Advancing Translational Sciences (NCATS).
# Rango complex inh: Rango-importin beta binding inhibition | Potency, µM (doses to about 92.2 µM), for inactives: at the highest dose inhibition of complex formation | Q14974 | 0.031% of 340,000 active | Rango CFP/YFP FRET sensor + importin beta, 45 min | AID 540263; active = rising FRET ratio curve, often small or poorly fitted; inconclusive = mostly compound fluorescence or quenching in the first reads; inactive = flat curves in all reads;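 further: potency means the concentration at half of the fitted maximal effect; 0% = DMSO wells and 100% = buffer wells lacking importin beta; nearly all actives have a fitted effect of over 15% in size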
# Target sequence (Q14974 whole entry, looked up): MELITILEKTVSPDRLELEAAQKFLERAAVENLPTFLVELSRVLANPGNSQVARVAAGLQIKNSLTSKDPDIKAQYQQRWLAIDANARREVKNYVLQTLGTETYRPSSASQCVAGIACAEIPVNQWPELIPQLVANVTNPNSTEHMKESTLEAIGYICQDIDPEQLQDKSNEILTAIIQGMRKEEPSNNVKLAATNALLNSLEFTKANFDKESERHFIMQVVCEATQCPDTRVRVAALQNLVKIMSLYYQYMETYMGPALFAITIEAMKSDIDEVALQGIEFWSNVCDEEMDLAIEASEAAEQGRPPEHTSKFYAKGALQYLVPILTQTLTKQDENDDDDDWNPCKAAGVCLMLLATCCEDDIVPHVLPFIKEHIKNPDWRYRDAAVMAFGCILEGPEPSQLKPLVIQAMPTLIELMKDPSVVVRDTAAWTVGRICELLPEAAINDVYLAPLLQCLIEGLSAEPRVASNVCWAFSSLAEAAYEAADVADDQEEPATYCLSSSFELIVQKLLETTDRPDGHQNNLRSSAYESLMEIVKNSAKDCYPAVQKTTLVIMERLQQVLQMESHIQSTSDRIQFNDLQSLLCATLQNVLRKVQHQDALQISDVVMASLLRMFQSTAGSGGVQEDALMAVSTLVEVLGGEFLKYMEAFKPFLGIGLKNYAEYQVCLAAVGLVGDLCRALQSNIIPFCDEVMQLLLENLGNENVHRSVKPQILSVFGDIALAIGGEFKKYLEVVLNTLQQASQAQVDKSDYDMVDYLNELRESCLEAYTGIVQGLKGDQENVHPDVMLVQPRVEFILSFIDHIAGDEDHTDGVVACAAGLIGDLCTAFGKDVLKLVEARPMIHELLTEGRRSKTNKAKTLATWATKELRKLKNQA
#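 Inhibition scored from the CFP 486 nm/YFP 530 nm FRET ratio 45 min after adding 0.125 microM importin beta to 50 nM Rango biosensor preincubated 5 min with compound (room temperature, PBS with DTT, Tween-20, BSA). No-importin wells as positive control.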
# Rango dissoc inh: inhibitors of RanGTP-induced Rango-importin beta complex dissociation. Biochemical FRET Rango-importin beta, RanGTP-induced dissociation. Potency, µM (titrated, usually from 46.1 µM), inactives show top-dose activity change, negative = inhibition. 0.071% of 340,000 active; active means falling FRET ratio curve, often poorly fitted, with flat reads before Ran was added; inconclusive means other falling curves, or compound fluorescence or quenching; inactive means flat or rising ratio curve;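 further: potency means the concentration at half of the fitted maximal effect; % of control where 0% means no effect; nearly all actives have a fitted effect of over 45% in size; -100% = wells without RanGTP and RCC1; the record marks most hits as doubtful in a second field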
#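 Recombinant Rango FRET biosensor (EYFP–snurportin 1 IBB–cerulean CFP10) at 0.1 uM premixed with 0.25 uM importin beta in PBS, 1 mM DTT, 0.02% Tween-20, 0.1% BSA. Compound added 5 min; RanGTP-RCC1 (0.6 uM Ran, 2 mM GTP, 0.2 uM RCC1) then triggers release, read at 45 min.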
# GLA inh pH 4.5: alpha-galactosidase A (human) inhibition, pH 4.5; 230,000 tested, under 10 active; activity change, negative = inhibition, % at 105 µM; P06280; purified enzyme, 4-MU-alpha-Gal fluorescence, pH 4.5; inconclusive = small, poorly fitted or top-dose-only inhibition, or a rising curve; inactive = flat fitted curve, though single readings scatter; no compound was filed as active;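 further: 0% = full activity with enzyme and -100% = basal without enzyme; dose as in the result columns while the protocol names 77 µM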
# miR-21 FLuc: miR-21 reporter, rising signal; HeLa miR-21 FLuc reporter, luciferase, 48 h; Potency, µM (highest dose often 38.3 µM), for inactives: at the highest dose reporter change, positive = more light; 340,000 tested, under 10 active; AID 2288; active = well fitted rising curve with a large enough effect; inconclusive = small, poorly fitted or top-dose-only effect; inactive = no such curve, though single readings can be large or run the other way;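 further: % of control where 0% means no effect; miR-21 action dims this reporter so a rising signal means less miR-21 action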
#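 Compounds were titrated across several concentrations (up to approximately 40 uM) and incubated 48 hours with HeLa miR-21-FLuc reporter cells (miR-21 target sequence downstream of FLuc, endogenous miR-21). Readout was firefly luciferase luminescence after lytic detection reagent.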
# Starred values were filed as active, the others as inactive; u = inconclusive; x = not tested or not shown; & = joins results of further samples; [ ] = remark or other dose. These rows are one share of the data (hit frequency here may not be typical).
SMILES,Rango dissoc inh,GLA inh pH 4.5,miR-21 FLuc,Rango complex inh
CCn1c2ccccc2c2nnc(SCCCn3c(=O)[nH]c4ccccc43)nc21,-8%,-2,-1%,3.3%
O=C1CC(N2CCC(c3nc4ccccc4[nH]3)CC2)C(=O)N1c1ccccc1F (centres undefined),-1%,4,-1%,8.9%
COc1cc2c(C(=O)N3CCN(Cc4ccc5c(c4)OCO5)CC3)cn(C)c(=O)c2cc1OC,-11%,0,-2%,0.3%
O=S1(=O)CC/C(=N\Nc2ccc(F)cc2)c2ccsc21,-15%,-17,-2%,u
O=C(CCS(=O)(=O)c1ccc(Cl)cc1)Nc1nccs1,-14%,x,x,-1.4%
Cc1ccc(C2CC(c3cccs3)=NN2C(=O)CSc2nc3ccccc3o2)cc1 (centres undefined),4%,9,0%,1.0%
CN1C(=O)C(C)(C)c2cc(S(=O)(=O)N3CCN(c4ccccc4)CC3)ccc21,8%,x,5%,-0.9%
COc1ccc(CN(Cc2ccc(OC)cc2)C(=O)c2cccs2)cc1,0%,-10,-11%,-0.3%
CCOc1cc(NC(=S)NC)c(OCC)cc1NC(=O)c1ccc(OC)cc1,2%,-5,-2%,-0.3%
COc1ccc(NC2CC(=O)N(c3ccccc3)C2=O)cc1 (centres undefined),0%,5,-22%,0.1%
COc1c(C(=O)NC(=S)Nc2nnn(C)n2)cc2ccccc2c1Br,-10%,x,-1%,-0.5%
COc1ccc(C(C(=O)NC2CCCC2)N(C(=O)c2csnn2)C2CCCC2)cc1 (centres undefined),-3%,x,1%,0.0%
Cc1ccc(N2C(=O)N(CC(=O)Nc3cc(F)ccc3C)C(=O)C2C)cc1 (centres undefined),19%,x,x,0.1%
CCCC(=O)Nc1sc(C)c(C)c1C(=O)Nc1cccc(C)c1,-4%,0,-3%,-3.6%
CCN1C(=O)/C(=c2\sc3nc(=O)c(Cc4ccccc4)nn3c2=O)c2ccccc21,17%,2,0%,6.3%
COC(=O)c1sccc1NC(=O)c1cc(-c2ccc(C)cc2C)nc2ccccc12,0%,-22,2%,0.4%
COc1ccc(-n2nc(C(=O)NCC(=O)N3CCN(c4ccccc4OC)CC3)c3ccccc3c2=O)cc1OC,1%,x,-1%,2.4%
Cc1ccccc1NC(=O)NCCc1nc2ccccc2[nH]1,-4%,-2,-1%,-4.0%
Oc1ccccc1NCC(O)Cn1ccc2ccccc21 (centres undefined),4%,2,-15%,-0.9%
O=C(CNC(=O)c1ccco1)OCC(=O)c1ccc(Cl)cc1,-1%,7,0%,0.7%
CCCN1Cc2cccc(C(=O)Nc3ccc(CC)cc3)c2C1=O,3%,-2,-6%,1.0%
OCC[C@@H]1C[C@@H](O)[C@H](O)[C@@]2(OCc3ccccc32)O1,-17%,x,0%,2.9%
CCOC(=O)C1CCN(S(=O)(=O)c2cc3c(cc2C)NC(=O)CO3)CC1,-7%,x,2%,3.2%
Cc1cc(=O)oc(C)c1C(=O)NCCCN1CCN(c2ccccc2F)CC1,-1%,2,1%,-0.4%
CC1(c2ccccc2)NC(=O)N(CC(=O)Nc2ccccc2C(=O)NC2CC2)C1=O (centres undefined),-6%,x,9%,-4.1%
O=C(CNC(=O)c1ccccc1)NCC(=O)OCC(=O)c1ccccc1Cl,-10%,x,-4%,0.7%
COc1cc2c3nnc(-c4ccccc4)c-3cn(Cc3ccccc3F)c2cc1OC,u,6,9%,u
CN1CCC(N(C)C(=O)/C(C#N)=C/c2ccc(OC(F)F)cc2)CC1,0%,8,-1%,0.0%
Cc1ccccc1CN1C(=O)c2ccccc2S(=O)c2ccc(C(=O)NCCCN3CCOCC3)cc21 (centres undefined),-1%,x,-5%,1.1%
Cc1noc(C)c1S(=O)(=O)N(C)C[C@H]1Oc2c(cccc2N(C)C)C(=O)N([C@H](C)CO)C[C@@H]1C,18%,x,x,0.4%
CCCc1nnc(NC(=O)CS(=O)(=O)c2ccccc2)s1,7%,x,-4%,-2.8%
Cn1c(C(=O)NCc2cccnc2)cc2sc(Cl)cc21,6%,-10,-18%,-4.0%
COc1ccccc1-c1c(C)nn2c(N3CCC4(CC3)OCCO4)cc(C)nc12,-13%,-6,-4%,0.7%
COCCNC(=O)CN(C(=O)c1ccc(N2CCCC2)nc1)c1ccc(Cl)cc1,7%,x,1%,-3.6%
CCOC(=O)c1ccc(N/C=C/C(=O)C(C)(C)C)cc1,0%,10,-59%,4.7%
CCNC(=S)NNC(=O)CC(C)C,-2%,5,3%,-4.3%
CCOc1ccc(S(=O)(=O)Nc2cccc(C(=O)N(C)CC(=O)Nc3cccc(OC)c3)c2)cc1,6%,x,x,-0.4%
CC(C)(C)NC(=O)CSc1nncn1NCc1ccccc1,-10%,-1,-4%,2.8%
Cn1nc(-c2ccccc2)cc1NC(=O)c1ccc(Cl)cc1,-10%,x,x,2.4%
COc1ccc2nc(NC(=O)C34CC5CC(CC(NC(C)=O)(C5)C3)C4)sc2c1,-2%,x,-11%,1.2%
CCOC(=O)c1cccnc1SCC(=O)N(CC)c1cccc(C)c1,1%,-8,-4%&5%,-7.0%
COc1cc(CCCN2C(=S)NC[C@@H]2CCCCN)cc(OC)c1OC,1%,0,-2%,-1.3%
O=C(NC1CCCCCC1)C(=O)NC1CC1,-25%,x,-9%,0.9%
Cc1ccccc1C(=O)Nc1cccc(-c2ccc(N3CCOCC3)nn2)c1,-9%,x,x,-0.6%
CC(C)CC1NC(=O)N(Cc2cc(=O)n3ccsc3n2)C1=O (centres undefined),6%,-1,-3%,-8.5%
O=C(CCc1c[nH]c2ccccc12)NC(Cc1c[nH]c2ccccc12)C(=O)O (centres undefined),0%,x,2%,-0.2%
O=C(O)CCCCn1c(SCc2cc(=O)n3cc(Cl)ccc3n2)nc2ccsc2c1=O,11%,11,-8%,1.5%
CN(CC(=O)Nc1ccccc1Br)C(=O)c1cc([N+](=O)[O-])ccc1N1CCOCC1,-6%,x,x,-0.3%
O=C(Cc1cccc(NC(=O)C2CCN(C(=O)C3CCCC3)CC2)c1)Nc1cccc(C(=O)N2CCCCC2)c1,-3%,x,x,-0.5%
CCCC(=O)c1ccc(OCc2cn(CC(=O)c3ccc(O)cc3)nn2)cc1,-4%,x,x,-1.4%
O=C(CN(C1CCCCC1)S(=O)(=O)c1ccc(Br)cc1)NCc1cccnc1,17%,5,6%,-1.0%
CC(C)NC(=O)C1CCN(C2CCN(C(=O)Cc3ccc4c(c3)OCO4)CC2)CC1,12%,-1,0%,0.4%
CN(C(=O)COC(=O)c1ccc(Cl)cc1N)C1CCCCC1,-8%,9,-29%,1.3%
Nc1cc(Cl)ccc1C(=O)OCC(=O)NC1CCS(=O)(=O)C1 (centres undefined),u,8,-3%,0.6%
CC12CCCCC1C(C(N)=O)C(=O)O2 (centres undefined),7%,x,x,-0.1%
CN(C)c1ccnc(Oc2ccc(C(C)(C)C)cc2)c1C#N,20%,-11,-35%,-3.5%
Cc1ccc(SCc2c(C(=O)N/N=C/c3cccnc3)nnn2-c2nonc2N)cc1,12%,x,7%,1.5%
CCOc1cc(N2CCOCC2)c(OCC)cc1NC(=O)c1ccc(S(=O)(=O)N2CC(C)OC(C)C2)cc1 (centres undefined),0%,x,x,-2.2%
CCOC(=O)N1CCN(c2nc(-c3ccc(Cl)cc3)cs2)CC1,4%,-2,-17%,1.7%
Cc1ccc(-n2ncc3c2CC(C)(C)CC3NC(=O)CN2CCCC2=O)cc1 (centres undefined),0%,x,-13%,-2.0%

# (cont.)
SMILES,Rango dissoc inh,GLA inh pH 4.5,miR-21 FLuc,Rango complex inh
CC(C(=O)Nc1ncccn1)(c1ccccc1)c1ccccc1,-12%,-2,2%,1.9%
CSc1nnc(SCC(=O)N(C)c2c(N)n(Cc3ccccc3)c(=O)[nH]c2=O)s1,0%,x,x,-4.3%
COc1cccc(C(C)NC(=S)NCc2ccc(Cl)cc2)c1 (centres undefined),-5%,-23,0%,-4.2%
Cc1nc2ccc(NC(=O)c3cccs3)cc2s1,-4%,x,-62%,-0.7%
Cc1ccccc1NC(=O)Cn1nc(-c2ccc(Cl)s2)ccc1=O,-3%,x,-16%,4.8%
CCOc1ccc(NCC2CCOC(C)(C)C2)cc1 (centres undefined),1%,2,-29%,-0.6%
O=S(=O)(c1ccc(SCCO)nc1)N1CCOCC1,3%,x,x,-0.2%
C/C(=N\Nc1nc(C)cc(C)n1)c1ccc(C)o1,17%,2,-6%,2.9%
CCC(CC)C(=O)OCC(=O)C1(O)CCC2C3CCC4=CC(=O)CCC4(C)C3C(O)CC21C (centres undefined),3%,x,x,-3.1%
COc1ccc(CNC(=O)C2=CC(c3ccc(OC)c(OC)c3)=NS(=O)(=O)N2C)cc1,0%,x,6%&23%,u
CCN1CCn2c3c(c4cc(Cl)ccc42)CCCC31 (centres undefined),-14%,x,-6%,3.4%
C1CN(c2nc3nonc3nc2N2C[C@H]3CC[C@H]2C3)CCS1,10%,-5,-3%,u
CC1(C)CC(=O)C(N=Nc2ccc(-c3ccccc3)cc2)=C(O)C1,-14%,4,-1%,0.6%
COc1ccc(CN2CCN(c3nc4ccccc4s3)CC2)cc1,18%,x,-8%,3.0%
COCCNC(=O)/C(C#N)=C/C=C/c1ccccc1[N+](=O)[O-],u,-4,u,-9.5%
Cc1ccc(/C=C/C(=O)Nc2nn[nH]n2)o1,-13%,0,-3%,0.1%
CCOC(=O)c1ccc[n+](CC(=O)Nc2ccccc2OC(F)F)c1,1%,3,-2%,-0.7%
O=C(Nc1cc(=O)[nH]c2nc(-c3ccc(Cl)cc3)nn12)c1ccccc1,2%,3,-5%,-3.3%
O=C(CN1C(=O)c2ccccc2C1=O)NCC1CCCO1 (centres undefined),2%,7,-4%,0.1%
CCC(C)CCCCNC1=NCCS1 (centres undefined),-2%,3,-2%,-6.2%
Cc1cc(NC(=O)CSc2nc(-c3ccc(F)cc3)cs2)no1,1%,-1,-4%,u
Cc1cc(=O)[nH]c2c3ccccc3nn12,19%,6[21.1 µM],-15%,u
CN(c1ccc(OCCOc2ccccc2Cl)cc1)S(=O)(=O)c1ccccc1,1%,x,x,0.0%
O=C(C[C@H]1C/C=C\CC[C@@H](Cc2ccc(F)cc2)C(=O)O[C@@H](c2ccccc2)CNC1=O)N[C@@H](CO)Cc1ccccc1,-8%,x,x,-6.2%
CC(=O)N1c2ccc(S(=O)(=O)NCCC(=O)Nc3ccc(OC(F)(F)F)cc3)cc2CC1C (centres undefined),11%,x,14%,1.4%
COC(=O)c1ccccc1NC(=O)CCNC(=O)Cn1cnc2ccccc2c1=O,1%,0,-1%,3.1%
COc1cc(/C=C(\C#N)c2nc3ccccc3[nH]2)cc(OC)c1O,u,-13,-16%,u
CC(=O)c1sc2nsc(SCCN3CCCCC3)c2c1N,u,-3,-15%,u
Cc1ccc2nc(SCC(=O)Nc3ccc(F)c([N+](=O)[O-])c3)[nH]c2c1,-7%,2,-8%,-0.9%
NNC(=O)c1ccc(COc2cccc3cccnc23)cc1,-1%,-3,-8%,-2.2%
Cc1ccc(CN(c2ccc(C(=O)Nc3cccnc3)cc2)S(C)(=O)=O)cc1,9%,-1,6%,0.8%

# Rewritten with values under each structure: entries from further up.
# Fields – Rango dissoc inh, GLA inh pH 4.5, miR-21 FLuc, Rango complex inh
O=C(Nc1cc(=O)[nH]c2nc(-c3ccc(Cl)cc3)nn12)c1ccccc1
→ 2%, 3, -5%, -3.3%
O=C(CN1C(=O)c2ccccc2C1=O)NCC1CCCO1 (centres undefined)
→ 2%, 7, -4%, 0.1%
CCC(C)CCCCNC1=NCCS1 (centres undefined)
→ -2%, 3, -2%, -6.2%
